# Screening results as filed in PubChem.
# GCN5L2 inh – inhibitors of human GCN5L2 histone acetyltransferase; 0.21% of 390,000 active; Potency, µM (highest dose often 58.9 µM), for inactives: top-dose activity change, negative = inhibition, most hits filed as inhibitors; GCN5L2 HAT assay, ThioGlo1 CoA-SH fluorescence; Q92830; active means well fitted inhibition curve with a large enough effect; inconclusive means small, poorly fitted or top-dose-only effect, or another doubt; inactive means no such curve, though single readings can be large or run the other way
# Target sequence (Q92830 whole entry, looked up): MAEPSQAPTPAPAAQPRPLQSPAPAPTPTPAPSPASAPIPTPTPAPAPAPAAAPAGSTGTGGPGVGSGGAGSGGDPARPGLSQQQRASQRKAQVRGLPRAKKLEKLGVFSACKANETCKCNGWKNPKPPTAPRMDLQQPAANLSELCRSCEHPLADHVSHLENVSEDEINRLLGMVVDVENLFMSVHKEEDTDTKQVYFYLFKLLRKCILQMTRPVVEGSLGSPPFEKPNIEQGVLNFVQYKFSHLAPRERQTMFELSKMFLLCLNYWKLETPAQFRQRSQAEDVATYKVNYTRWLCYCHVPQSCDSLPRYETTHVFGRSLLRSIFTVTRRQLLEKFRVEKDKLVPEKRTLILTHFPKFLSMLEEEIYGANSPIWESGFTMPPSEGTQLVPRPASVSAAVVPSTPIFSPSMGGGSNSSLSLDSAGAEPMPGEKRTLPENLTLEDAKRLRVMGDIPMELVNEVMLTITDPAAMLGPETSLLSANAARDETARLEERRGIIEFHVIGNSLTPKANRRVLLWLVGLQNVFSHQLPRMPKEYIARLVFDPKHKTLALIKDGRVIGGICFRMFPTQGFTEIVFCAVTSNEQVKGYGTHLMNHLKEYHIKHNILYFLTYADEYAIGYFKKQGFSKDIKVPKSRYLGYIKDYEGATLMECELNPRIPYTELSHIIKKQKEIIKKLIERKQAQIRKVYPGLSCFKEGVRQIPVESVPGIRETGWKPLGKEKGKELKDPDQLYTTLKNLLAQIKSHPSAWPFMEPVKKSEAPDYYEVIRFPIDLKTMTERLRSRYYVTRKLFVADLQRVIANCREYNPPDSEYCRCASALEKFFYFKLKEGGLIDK
#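 qHTS, 1536-well. 20nM enzyme, pH 7.5 HEPES/EDTA/Tween-20 buffer; 15 min compound preinc., RT. Start: 75uM H3(1-25), 70uM AcCoA, 50uM ThioGlo1. Read Ex340/Em540 at t=0 (autofluorescence flag) and t=20 min.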
# * = called active by the depositor; ? = inconclusive; & = joins results of further samples; [ ] = remark or other dose. On the % scale 0 is the no-effect control and ±100 the full control effect; potency means the concentration at half of the fitted maximal effect. The list is partial, and most or all hits are left out here.
SMILES,GCN5L2 inh
CCCNC(=O)C(Cc1ccccc1)NS(=O)(=O)c1cccc2nsnc12 (stereo unspecified),-26%
O=C(NCc1ccccc1)C(c1ccncc1)N(C(=O)c1csnn1)C1CC1 (stereo unspecified),23%
O=C(COc1ccccc1F)NNC(=O)c1cc(Br)ccc1Cl,-2%
Cc1ccc(S(=O)(=O)N2CCN(c3nc(C)c4c(c3C#N)CC(C)(C)OC4)CC2)cc1,-9%
O=C1CSC(c2ccc3c(c2)OCO3)N1c1ccc(Oc2ccccc2)cc1 (stereo unspecified),-8%
COc1ccc(C(C)C(=O)c2ccc(O)cc2O)cc1 (stereo unspecified),-18%
COc1ccc(CNC(=O)CCN2C(=O)c3ccccc3S2(=O)=O)cc1,3%
COc1ccc(CCN2CC(C(=O)O)CC2=O)cc1OC (stereo unspecified),0%
Nc1ccc(C(=O)N2CCN(S(=O)(=O)/C=C/c3ccccc3)CC2)cc1[N+](=O)[O-],-2%
O=C(Nc1ccccc1)c1cc2ccccc2c(=O)s1,-5%
O=C(CCCC(=O)N(CC(=O)NC1CCCCC1)Cc1ccc2c(c1)OCO2)Nc1ccccn1,-10%
Nc1nc(Cn2nnc(-c3ccccc3F)n2)nc(N2CCOCC2)n1,0%
O=S(=O)(Nc1ccc2nc(-c3cccc(Cl)c3)oc2c1)c1ccccc1,-18%
O=C(Nc1ccccc1N1CCCC1)c1ccc2ccccc2c1,-8%
COc1ccc(CNC(=O)c2cnc3sc(N4CCCCCC4)nn3c2=O)cc1,-7%
O=C(Nc1cc(C(F)(F)F)ccc1N1CCOCC1)c1cccnc1,-9%
COc1ccccc1Nc1nc2c(C)cccc2cc1C#N,1%
COc1cccc(/C=N/NC(=O)c2c(C)nc3ccc(Br)cn23)c1,-2%
Cc1cc(C(=O)N/N=C/c2ccc(-c3cccc(Cl)c3)o2)n[nH]1,-4%
CC(=O)c1ccc(N2CCN(C(=O)CCCn3c(=O)[nH]c4ccccc4c3=O)CC2)cc1,-10%
Cc1ccc(-c2csc(Nc3ccccc3)[n+]2CCc2ccccc2)cc1,0%
CCOc1ccc(CNC(=O)Cn2nc(N3CCN(c4ccccc4)CC3)ccc2=O)cc1,2%
COc1ccc(S(=O)(=O)N2CCCC(C(=O)N3CCN(c4ccccc4)CC3)C2)cc1Cl (stereo unspecified),-22%
CCc1cc2c(=O)c(-c3nc(C)cs3)coc2cc1O,-9%
Cc1ccc(OCC(=O)OCC(=O)NC2CCCC2)cc1C,1%
O=C(NCc1cccc(Br)c1)C1CCCCN1S(=O)(=O)c1ccc(F)cc1 (stereo unspecified),0%
Cc1ccc(S(=O)(=O)N2CCCC2C(=O)NCc2ccncc2)cc1 (stereo unspecified),-32%
CO/N=C/c1ccc(Oc2ccc(C)cc2)nc1,-18%
Cc1ccc(S(=O)(=O)N2CCN(Cc3ccccc3)CC2)c(C)c1N(C)S(=O)(=O)c1ccccc1,33%[activator]
Cc1ccc(C(=O)NNC(=O)c2ccccc2OCc2c(C)noc2C)cc1,1%
CC(=O)c1c(C)[nH]c(C(=O)CN2C(=O)NC3(CCCCC3)C2=O)c1C,1%
COc1ccc(-c2cc(C(F)(F)F)n3ncc(C(=O)N(C)Cc4ccccc4)c3n2)cc1,-26%
N#Cc1nc(Cc2cccc3ccccc23)oc1NCCCN1CCOCC1,7%
CCOC(=O)C(C)Sc1nnc(NC(=O)c2ccc3c(c2)OCO3)s1 (stereo unspecified),3%
O=C(c1ccccc1)c1nccn1-c1ccc(Cl)nn1,-7%
O=C(COc1ccccc1)Nc1nnc(C23CC4CC(CC(C4)C2)C3)s1,-1%
Cc1cc(OCc2cc(C(=O)NCc3csc(C(C)C)n3)no2)cc(C)c1Cl,1%
Cc1sc2ncn(CC(=O)Nc3cccc(C(F)(F)F)c3)c(=O)c2c1S(=O)(=O)N1CCC(C)CC1,3%
NC(=O)NC(=O)CN1c2cccc3cccc(c23)S1(=O)=O,-5%
COc1cc(CN2CC(C)CC(C)C2)cc([N+](=O)[O-])c1O (stereo unspecified),-2%
Cc1onc(C(=O)Nc2ccc(OC(F)(F)F)cc2)c1[N+](=O)[O-],-7%
O=C(CN(C(=O)c1csnn1)c1ccccc1Cl)NCCc1ccccc1,2%
Cc1ccc(S(=O)(=O)N2CCC(C(=O)Nc3ccc4c(c3)COC4=O)CC2)cc1,0%
O=C(CCNC(=O)c1ccc([N+](=O)[O-])cc1)NCCc1ccc(Cl)cc1,-6%
Cc1cc(Oc2ccc(=O)n(C)n2)nc(Oc2ccc(=O)n(C)n2)n1,0%

# For convenience, three of the compounds above:
SMILES,GCN5L2 inh
N#Cc1nc(Cc2cccc3ccccc23)oc1NCCCN1CCOCC1,7%
CCOC(=O)C(C)Sc1nnc(NC(=O)c2ccc3c(c2)OCO3)s1 (stereo unspecified),3%
O=C(c1ccccc1)c1nccn1-c1ccc(Cl)nn1,-7%

# More structures follow:
SMILES,GCN5L2 inh
CS(=O)(=O)N1CCCC(C(=O)NCc2ccccc2Cl)C1 (stereo unspecified),0%
Cn1cccc1CC(=O)N/N=C/C=C/c1ccccc1,-1%
COC(=O)C1=COC(C)C2CN3CCc4c([nH]c5ccccc45)C3CC12 (stereo unspecified),-5%
COC(=O)c1ccc(OC)c(NS(=O)(=O)c2ccc(-n3cnnn3)cc2)c1,-23%
O=c1[nH]nc(Cc2ccc(-c3ccccc3Cl)o2)c2ccccc12,1%
COc1ccc(NC(=O)C2CCN(S(=O)(=O)c3cccnc3)CC2)cc1Cl,2%
COC(=O)c1ccc(C(=O)NC(=S)Nc2nc3c(s2)CC(C)CC3)cc1 (stereo unspecified),34%
O=C(/C=C/c1ccc(Cl)c([N+](=O)[O-])c1)Nc1ccc(N2CCCC2)c(Cl)c1,-2%
CC(OC(=O)c1ccc(S(=O)(=O)N2CCCCC2)cc1)C(=O)Nc1ccc(C(N)=O)cc1 (stereo unspecified),1%
O=C(Nc1nc2c(ccc3ccccc32)s1)c1ccco1,-5%
Cc1cccnc1NC(=S)NC(=O)c1cccs1,1%
COc1ccc(NC(=S)N2CCc3ccccc3C2)cc1OC,2%
Cc1ccc(NC(=O)c2c([N+](=O)[O-])c(C(C)(C)C)nn2C)cc1,-1%
Cc1cc(-c2ccccc2)nc(N(C)NC(=O)C(C)(C)C)c1S(C)(=O)=O,-4%
COc1ccc(Cl)cc1NC(=O)C1Cc2ccccc2CN1S(C)(=O)=O (stereo unspecified),-15%

# Arranged by the number under GCN5L2 inh (rising): some entries from above.
SMILES,GCN5L2 inh
Cc1cc(-c2ccccc2)nc(N(C)NC(=O)C(C)(C)C)c1S(C)(=O)=O,-4%
O=c1[nH]nc(Cc2ccc(-c3ccccc3Cl)o2)c2ccccc12,1%
COc1ccc(NC(=S)N2CCc3ccccc3C2)cc1OC,2%
COC(=O)c1ccc(C(=O)NC(=S)Nc2nc3c(s2)CC(C)CC3)cc1 (stereo unspecified),34%

# (continued)
SMILES,GCN5L2 inh
CCN(CC)CCN1C(=O)C(O)=C(C(C)=O)C1c1ccc(OC)c(OC)c1 (stereo unspecified),-2%
CCC1(C(=O)OC)NC(c2ccccc2OC)C2C(=O)N(C)C(=O)C21 (stereo unspecified),-1%
COc1ccc(C2C(C(=O)c3sc(C)nc3C)=C(O)C(=O)N2CCN(C)C)cc1 (stereo unspecified),-1%
COc1ccc(CN2CCNC(=O)C2CC(=O)N2CCCN(C(C)=O)CC2)c(OC)c1 (stereo unspecified),0%
CC(Sc1sc(=S)sc1SC(C)C(=O)O)C(=O)O (stereo unspecified),-6%
NC(=O)c1ccccc1NC(=O)c1cc(S(=O)(=O)N2CCCCC2)ccc1N1CCOCC1,-9%
Cc1ccc(S(=O)(=O)N2CCC(C(=O)N3CCC[C@H]3C(=O)NCc3ccco3)CC2)cc1,-8%
O=C(Nc1cccc(S(=O)(=O)N2CCOCC2)c1)c1cc2c(s1)CCC2,-2%
Cc1ccc(OCc2nnc(SCC(=O)Nc3ccc(N4CCOCC4)cc3)o2)cc1,-6%
CC1CC2C3CCC4=CC(=O)C=CC4(C)C3(F)C(O)CC2(C)C1(O)C(=O)CO (stereo unspecified),0%
Cc1ccc(C(C(=O)NC2CCCC2)N(Cc2ccc(F)cc2)C(=O)c2csnn2)o1 (stereo unspecified),0%
Clc1ccccc1CNc1ncnc2nc[nH]c12,4%
CCOC(=O)/C=C1\SC(C)C(=O)N1CC(=O)N(CCC#N)c1ccccc1 (stereo unspecified),-12%
COc1ccc(OC)c(-n2cnc3cc(C(=O)NC4CCCCCC4)ccc32)c1,-5%
COc1ccc2c(c1)C(=O)N1[C@H]3c4cc(OC)ccc4OC[C@@H]3[C@H](c3ccccc3)[C@]1(C)C(=O)N2,-6%
COC(=O)CN(C(=S)Nc1ccccc1)C1CC(=O)N(c2ccc(OC)cc2)C1=O (stereo unspecified),-18%
CC(C)(C)OC(=O)NCCc1nnc(SCc2cccc(Cl)c2)o1,0%
O=C(Nc1ccc(Cl)cn1)c1ccc2ccccc2n1,1%
Cc1ccc(C(=O)NCC(=O)NCCCc2ccccc2)cc1,-7%
O=C(COC(=O)/C=C/c1ccccc1Cl)NCC1CCCO1 (stereo unspecified),-5%
Cc1cccc(NS(=O)(=O)c2cc(C(=O)N3CCOCC3)ccc2Cl)c1,0%
CN(C)C(=O)C(CCN1CCC(O)(c2ccc(Cl)cc2)CC1)(c1ccccc1)c1ccccc1,-4%&1%&-5%
O=C(NCCO)c1cc2c(s1)CCC2,-4%
N#CCCn1cc(C(=O)CN2C(=O)C(=O)N(C3CCCC3)C2=O)c2ccccc21,-2%
O=[N+]([O-])c1ccc(N/N=C/c2ccccc2)cc1,-8%
O=C(CC1C(=O)NCCN1C/C=C/c1ccccc1)NCCc1cccnc1 (stereo unspecified),0%
O=C(N/N=C/c1ccncc1)c1sc2ccccc2c1Cl,-31%
O=C1OC(Nc2ccc3ncccc3c2)c2ccccc21 (stereo unspecified),-5%
Cc1ccc(NC(=O)c2nc3nccc(C)n3n2)cc1S(=O)(=O)N1CCCCC1,-4%
Cc1ccc(OCC(=O)Nc2ccc3c(c2)OCCO3)cc1C,-5%

# Among those listed so far, 6 have an NH in an aromatic ring.
SMILES,GCN5L2 inh
Cc1cc(C(=O)N/N=C/c2ccc(-c3cccc(Cl)c3)o2)n[nH]1,-4%
CC(=O)c1ccc(N2CCN(C(=O)CCCn3c(=O)[nH]c4ccccc4c3=O)CC2)cc1,-10%
CC(=O)c1c(C)[nH]c(C(=O)CN2C(=O)NC3(CCCCC3)C2=O)c1C,1%
COC(=O)C1=COC(C)C2CN3CCc4c([nH]c5ccccc45)C3CC12 (stereo unspecified),-5%
O=c1[nH]nc(Cc2ccc(-c3ccccc3Cl)o2)c2ccccc12,1%
Clc1ccccc1CNc1ncnc2nc[nH]c12,4%

# Remaining list, next part:
SMILES,GCN5L2 inh
Cc1ccsc1C(=O)OCc1csc(-c2ccccc2)n1,-8%
O=C(NCC1CCCO1)c1nn2cccnc2c1Cl (stereo unspecified),-12%
CCOc1ccccc1OCC(=O)Nc1ccc(N2CCCCC2)cc1,-9%
Cc1ccnc(SCC(=O)Nc2sc3c(c2C#N)CCC(C(C)(C)C)C3)n1 (stereo unspecified),0%
COc1cccc(CNCc2cccnc2)c1OCc1ccccc1,?
Cc1ccc(-c2nn(-c3ccc(F)cc3F)c3c2cnc2c(F)cccc23)cc1,-2%
Cn1c(-c2ccccc2)n[nH]c1=S,2%
Fc1ccc(Nc2nc(N/N=C/c3ccco3)nc(N3CCCCC3)n2)cc1,-15%
O=S(=O)(NCc1ccccc1)c1ccc(-n2cccn2)cc1,-4%
COc1ccc(-n2ccnc(SCC(=O)NCc3ccc(C)cc3)c2=O)cc1Cl,1%
CCOc1ccc(NC(=O)CSc2nc3cccnc3n2CC)cc1,-3%
CN(CC(=O)OCC(N)=O)S(=O)(=O)c1ccc(Cl)cc1,0%
O=C(COc1ccccc1)N1CCN(S(=O)(=O)c2ccc(Cl)cc2)CC1,-6%
COc1ccccc1/C=C/C(=O)c1ccc(Cl)cc1,22%
O=C(NC(=S)Nc1ccc2cn[nH]c2c1)c1ccccc1,-11%
COc1ccc(NC(=O)c2[nH]ncc2[N+](=O)[O-])cc1,4%
Cc1ccc(C(=O)NCc2nnc(SCC(=O)NC(C)c3ccccc3)n2C)cc1 (stereo unspecified),-1%
O=C(CNc1cc(S(=O)(=O)N2CCOCC2)ccc1NCC1CCCO1)Nc1ccccc1F (stereo unspecified),3%
N#Cc1cccc(NCC(=O)Nc2cccc(S(=O)(=O)N3CCCCC3)c2)c1,-7%
COc1ccccc1CNC(=O)COC(=O)Cc1cccc(F)c1,-4%
O=C(COC(=O)CCS(=O)(=O)c1ccc(Cl)cc1)NCCc1ccccc1,-3%
Cc1cc(/C=C\c2ccc3cc(N(C)C)ccc3[n+]2C)c(C)n1-c1ccccc1,?
NCCN1CCN2C(=O)CN(C(=O)c3ccccc3)CC12 (stereo unspecified),-1%
CC1CCCC(C)N1CCCNC(=O)c1ccc2c(c1)NC(=O)c1ccccc1S2 (stereo unspecified),-5%
CC1Cc2ccccc2N1C(=O)c1ccnc(C(C)(C)C)c1 (stereo unspecified),-3%
Cn1c(CNC(=O)c2ccccc2F)nnc1SCCOc1ccccc1,0%
CN(C)c1oc(COc2ccccc2F)nc1C#N,2%
CCOc1ccccc1NC=C1C(=O)OC(C)(C)OC1=O,15%
Cc1cc2cc(CCNC(=O)CCCc3ccccc3)c(=O)[nH]c2cc1C,-3%
C=CCNc1ncnc2ccc(Br)cc12,-5%&-3%
COc1ccccc1N1CCN(CC(O)COc2cccc3ccccc23)CC1 (stereo unspecified),-14%&-2%&2%&0%

# Part of the list above in order of length of the SMILES, high to low:
SMILES,GCN5L2 inh
COc1ccccc1N1CCN(CC(O)COc2cccc3ccccc23)CC1 (stereo unspecified),-14%&-2%&2%&0%
COc1ccccc1CNC(=O)COC(=O)Cc1cccc(F)c1,-4%
NCCN1CCN2C(=O)CN(C(=O)c3ccccc3)CC12 (stereo unspecified),-1%
